Screening data as filed in PubChem BioAssay.
Rango dissoc inh: inhibition of RanGTP-driven Rango-importin beta dissociation; O95149+P62826; Biochemical FRET Rango-importin beta, RanGTP-induced dissociation; Potency, µM (highest dose often 46.1 µM), for the others: at the top dose activity change, negative = inhibition; actives 0.071% (n = 340,000); AID 540253; active means falling FRET ratio curve, often poorly fitted, with flat reads before Ran was added; inconclusive means other falling curves, or compound fluorescence or quenching; inactive means flat or rising ratio curve;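 further: potency means the concentration at half of the fitted maximal effect; % of control where 0% means no effect; nearly all actives have a fitted effect of over 45% in size; -100% = wells without RanGTP and RCC1; the record marks most hits as doubtful in a second field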
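Two FRET readings bracket the reaction: one 5 min after compound meets Rango–importin beta, another 45 min after RanGTP-RCC1 (0.6 uM Ran, 0.2 uM RCC1, 2 mM GTP) is added. Only the second defines inhibition.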
GLA inh pH 4.5: alpha-galactosidase A (human) inhibition, pH 4.5 | P06280 | purified enzyme, 4-MU-alpha-Gal fluorescence, pH 4.5 | activity change, negative = inhibition, % at 105 µM | 230,000 tested, under 10 active | AID 1467; inconclusive = small, poorly fitted or top-dose-only inhibition, or a rising curve; inactive = flat fitted curve, though single readings scatter; no compound was filed as active;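 further: 0% = full activity with enzyme and -100% = basal without enzyme; dose as in the result columns while the protocol names 77 µM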
miR-21 reporter: raises the signal of a miR-21 reporter. HeLa miR-21 FLuc reporter, luciferase, 48 h. Potency, µM (series often up to 38.3 µM), without a hit: top-dose reporter change, positive = more light. 340,000 tested, under 10 active; active = well fitted rising curve with a large enough effect; inconclusive = small, poorly fitted or top-dose-only effect; inactive = no such curve, though single readings can be large or run the other way;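 further: % of control where 0% means no effect; miR-21 action dims this reporter so a rising signal means less miR-21 action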
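HeLa cells endogenously expressing miR-21, stably carrying CMV-driven firefly luciferase with a downstream miR-21 binding site, 2000 cells/well. Titrations up to approximately 40 uM, 48 hours; luciferase luminescence read.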
Rango-impB inh: Rango-importin beta binding inhibition | Q14974 | Rango CFP/YFP FRET sensor + importin beta, 45 min | Potency, µM (top dose mostly 92.2 µM), for the others: top-dose inhibition of complex formation | actives 0.031% (n = 340,000) | AID 540263; active = rising FRET ratio curve, often small or poorly fitted; inconclusive = mostly compound fluorescence or quenching in the first reads; inactive = flat curves in all reads;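 further: potency means the concentration at half of the fitted maximal effect; 0% = DMSO wells and 100% = buffer wells lacking importin beta; nearly all actives have a fitted effect of over 15% in size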
Target sequence (Q14974 whole entry, looked up): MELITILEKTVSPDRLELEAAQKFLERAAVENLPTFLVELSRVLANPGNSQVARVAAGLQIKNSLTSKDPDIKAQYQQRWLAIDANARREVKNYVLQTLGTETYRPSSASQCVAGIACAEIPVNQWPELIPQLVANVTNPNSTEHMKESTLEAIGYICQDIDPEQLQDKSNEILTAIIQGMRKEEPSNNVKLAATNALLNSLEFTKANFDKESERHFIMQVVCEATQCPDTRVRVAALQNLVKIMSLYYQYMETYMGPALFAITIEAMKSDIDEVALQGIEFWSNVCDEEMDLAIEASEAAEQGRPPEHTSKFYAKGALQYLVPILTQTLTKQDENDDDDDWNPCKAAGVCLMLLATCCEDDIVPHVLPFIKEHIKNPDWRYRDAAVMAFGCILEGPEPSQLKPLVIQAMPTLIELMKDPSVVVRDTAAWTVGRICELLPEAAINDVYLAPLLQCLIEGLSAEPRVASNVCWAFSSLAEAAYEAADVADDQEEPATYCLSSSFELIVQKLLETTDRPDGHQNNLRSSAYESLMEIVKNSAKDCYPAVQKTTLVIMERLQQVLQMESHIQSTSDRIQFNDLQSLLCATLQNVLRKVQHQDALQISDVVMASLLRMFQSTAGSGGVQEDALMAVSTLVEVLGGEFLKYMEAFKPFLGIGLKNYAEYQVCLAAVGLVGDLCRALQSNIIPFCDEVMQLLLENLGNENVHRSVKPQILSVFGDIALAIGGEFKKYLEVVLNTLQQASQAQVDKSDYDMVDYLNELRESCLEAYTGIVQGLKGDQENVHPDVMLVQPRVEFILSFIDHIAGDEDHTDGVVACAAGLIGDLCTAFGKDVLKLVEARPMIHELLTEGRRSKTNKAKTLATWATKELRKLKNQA
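Inhibition scored from the CFP 486 nm/YFP 530 nm FRET ratio 45 min after adding 0.125 microM importin beta to 50 nM Rango biosensor preincubated 5 min with compound (room temperature, PBS with DTT, Tween-20, BSA). No-importin wells as positive control.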
* marks the source's active call; other numbers are inactive results; u = inconclusive; x = no result given; [ ] = remark or other dose. A portion of the library. The share of hits here may be higher or lower than overall.

Rango dissoc inh	canonical_smiles	GLA inh pH 4.5	miR-21 reporter	Rango-impB inh
-4%	COc1ccc(N2CCN(C(=O)Cn3cncn3)CC2)cc1	-20	1%	-0.4%
1%	COC(=O)N/N=C/c1ccc(-c2ccc(Cl)cc2Cl)o1	1	-17%	-0.9%
2%	CCCCn1c(N)c(N(CCOC)C(=O)COC(=O)/C=C/c2ccc(Br)cc2)c(=O)[nH]c1=O	x	0%	0.7%
0%	O=C(COc1ccc(S(=O)(=O)N2CCOCC2)cc1)NCC1CCCO1 (stereo unspecified)	x	-3%	-1.1%
0%	Cc1c(C(=O)N/N=C/c2ccc(Cl)cc2)[nH]c2ccc(Cl)cc12	-1	21%	0.1%
-2%	O=C(NCCCN1CCN(c2ccccc2F)CC1)Nc1ccccc1[N+](=O)[O-]	-13[21.1 µM]	-9%	1.1%
-6%	O=C1C=C(c2cc(C(F)(F)F)cc(C(F)(F)F)c2)C[C@@H](c2ccc3c(c2)OCO3)C1	x	x	-4.2%
-12%	O=C(NC1CCS(=O)(=O)C1)/C(=C\c1ccc(F)cc1)NC(=O)c1ccccc1 (stereo unspecified)	3	-2%	-1.2%
-11%	COc1ccc(/C=C(/NC(=O)/C=C/c2ccccc2)C(=O)NCCCCCC(=O)O)cc1	7	-11%	-1.4%
7%	CCOC(=O)c1ccc(NC(=O)c2cnccn2)cc1	-4	-40%	-3.1%
-5%	CCN(CC)C(=O)CSC1=N/C(=C/c2ccco2)C(=O)N1c1ccc(OC)c(Cl)c1	1	-9%	-4.8%
-2%	Cc1cccnc1CNC(=O)C1CCC(=O)N(CCc2cccc(F)c2)C1 (stereo unspecified)	x	-2%	1.0%
6%	COc1ccccc1C1CC(=O)Oc2cc(C)c(Cl)c(C)c21 (stereo unspecified)	-15	x	3.3%
2%	COc1ccc(N(C(C)C(=O)N2CCCC2)S(C)(=O)=O)cc1 (stereo unspecified)	x	-3%	-2.4%
21%	COc1ccc(CN(CCO)CCO)cc1[N+](=O)[O-]	-1	-2%	3.1%
-5%	Cc1cccc(-n2c(C)nc3c(cnn3-c3ccc(F)cc3)c2=O)c1	-5	-12%	0.3%
0%	O=C(CCC1CCCCC1)NNC(=O)c1cnccn1	-13	9%	-0.1%
8%	C[C@@H]1CC[C@]2(C(=O)O[C@@H]3O[C@H](CO)[C@@H](O)[C@H](O)[C@H]3O)CC[C@]3(C)C(=CCC4[C@@]5(C)C[C@@H](O)[C@H](O)[C@@](C)(C(=O)O[C@@H]6[C@H](O)C[C@@]7(C)C(CC[C@]8(C)C7CC=C7[C@H]9[C@](C(=O)O[C@@H]%10O[C@H](CO)[C@@H](O)[C@H](O)[C@H]%10O)(CC[C@@H](C)[C@@]9(C)O)CC[C@]78C)[C@@]6(CO)C(=O)O)C5CC[C@]43C)[C@@H]2[C@]1(C)O (stereo partly specified)	x	x	-0.1%
-14%	COc1ccccc1NC(=O)C1=C(C)NC2=C(C(=O)CC(c3ccc(OC)c(OC)c3)C2)C1c1coc2ccccc2c1=O (stereo unspecified)	-7	11%	1.1%
-11%	COc1ccc(Cl)cc1NC(=O)c1cccnc1	-19	-2%	0.1%
-16%	COc1ccc(-c2c(-c3ccccc3OC)sc3ccccc23)cc1	x	-3%	-10%
0%	Cc1ccc(/C=N/OC(=O)c2nn(C)cc2Cl)cc1	-9	-3%	1.3%
4%	O=C(N/N=C/c1ccc(OC(=O)c2ccc(Br)cc2)cc1)c1ccncc1	x	0%	1.5%
3%	Nc1nc(CSc2nnnn2-c2ccccc2)nc(N2CCCc3ccccc32)n1	-1	-11%	-1.8%
-6%	Cc1c(Cl)cccc1NC(=S)N1CCN(c2ccc([N+](=O)[O-])cn2)CC1	3	-2%	-1.1%
7%	CC(=O)c1ccc(NC(=O)COC(=O)CCC(=O)c2cccs2)cc1	-7	-11%	-0.7%
1%	COCCCNC(=O)c1ccc(Cn2c(=O)c3ccccc3n(CC(=O)NCCc3ccc(OC)c(OC)c3)c2=O)cc1	-12[21.1 µM]	-3%	-1.7%
-4%	O=C(Nc1cc(Cl)c(O)c(Cl)c1)C1CCCO1 (stereo unspecified)	11	2%	0.7%
-14%	C(=C\c1sc(Nc2ccccc2)n[n+]1-c1ccccc1)/c1ccccc1	x	x	u
-7%	Nc1c(-c2cccs2)cnn1-c1nc(-c2ccc(F)cc2)cs1	4	-26%	-1.9%

Fetched by compound from above, two records:
Rango dissoc inh	canonical_smiles	GLA inh pH 4.5	miR-21 reporter	Rango-impB inh
8%	C[C@@H]1CC[C@]2(C(=O)O[C@@H]3O[C@H](CO)[C@@H](O)[C@H](O)[C@H]3O)CC[C@]3(C)C(=CCC4[C@@]5(C)C[C@@H](O)[C@H](O)[C@@](C)(C(=O)O[C@@H]6[C@H](O)C[C@@]7(C)C(CC[C@]8(C)C7CC=C7[C@H]9[C@](C(=O)O[C@@H]%10O[C@H](CO)[C@@H](O)[C@H](O)[C@H]%10O)(CC[C@@H](C)[C@@]9(C)O)CC[C@]78C)[C@@]6(CO)C(=O)O)C5CC[C@]43C)[C@@H]2[C@]1(C)O (stereo partly specified)	x	x	-0.1%
3%	Nc1nc(CSc2nnnn2-c2ccccc2)nc(N2CCCc3ccccc32)n1	-1	-11%	-1.8%

(more compounds)
Rango dissoc inh	canonical_smiles	GLA inh pH 4.5	miR-21 reporter	Rango-impB inh
1%	COc1ccc(CNC(=O)c2ccc(Cl)c(NC3=NC4CS(=O)(=O)CC4S3)c2)cc1 (stereo unspecified)	x	-2%	1.5%
-4%	Cc1nc(C)c(C(=O)N/N=C/c2c[nH]c3ccccc23)s1	-1	19%	-3.3%
3%	COc1ccc(NC(=O)CSc2nnc(N)s2)cc1S(=O)(=O)N1CCCCC1	x	x	-0.2%
-2%	Fc1ccccc1NC(=S)Nc1cccnc1	-4	3%	-0.9%
20%	Cc1ccc(NC(=O)CSc2ccc(Br)cc2)cc1S(=O)(=O)N1CCOCC1	x	x	0.4%
3%	O=C(COC(=O)c1n[nH]c(=O)c2ccccc12)c1ccc(Br)cc1	-4	-1%	-1.5%
-10%	Cc1ccc(S(=O)(=O)N2CCN(C(=O)COC(=O)/C=C/c3cccc([N+](=O)[O-])c3)CC2)c(C)c1	x	x	u
3%	CCS(=O)(=O)Nc1ccc(C(=O)CC2(O)C(=O)Nc3ccccc32)cc1 (stereo unspecified)	-4	-4%	0.7%
-15%	COc1ccccc1NC(=O)CSc1ccc(-c2ccco2)nn1	x	-17%	0.1%
6%	O=C(COC(=O)/C=C/c1ccccc1)NC1CCCCC1	x	x	-0.2%
-6%	COc1ccc(C(=O)N2CCN(c3ccc(F)cc3)CC2)cc1S(=O)(=O)NC1CC1	x	x	0.3%
-8%	CC1CCN(C(=O)Cn2cc(C(=O)C3CC3)c3ccccc32)CC1	2	-16%	-4.8%
0%	CCN(CC(=O)Nc1ccc(NC(C)=O)cc1)C(=O)C1CCC1	x	x	-1.6%
2%	Cc1ccc(S(=O)(=O)CC(=O)Nc2ccccn2)cc1	x	2%	-3.2%
1%	Cn1nc(C(=O)OCC(=O)NCCc2ccccc2)c2ccccc2c1=O	x	0%	0.3%
1%	COc1ccc(CCNC(=O)C2CCN(C(=O)N(C)C)CC2)cc1OC	-5	-3%	-4.6%
5%	Cc1nc(-c2ccc3c(c2)OCCCO3)cs1	-1	-52%	-3.4%
10%	CCc1c(C(=O)NNC(=S)NC2CCCCC2)csc1C	-24	-16%	0.1%
-23%	O=c1cc(C(F)(F)F)[nH]c2c(C(F)(F)F)cccc12	1	29%	1.6%
1%	CC1(C)Cc2c(cnn2-c2ccccc2)C(NC(=O)CCc2ccncc2)C1 (stereo unspecified)	x	0%	-2.7%
0%	CCn1nc(C(=O)Nc2ccc(N3CCOCC3)cc2)c2ccccc2c1=O	x	x	-3.2%
-10%	CCOC(=O)COc1nc2c(c(-c3ccco3)c1C#N)CCc1ccccc1-2	1	-3%	-1.2%
5%	Cc1nnc2sc(-c3csc4c3CCCC4)nn12	-1	-29%	3.7%
0%	COc1cc2[nH]c(=O)n(CCCCCC(=O)NCCCN3CCOCC3)c(=O)c2cc1OC	4	-4%	-5.5%
8%	Clc1ccc(-c2n[nH]c3c2CCCC3)cc1	1	-43%	3.9%
-5%	O=C1CSC(=Nc2ccccc2Cl)N1	-2	-16%	0.8%
0%	CCc1noc(C)c1C(=O)Nc1nc(-c2ccccc2)cs1	x	x	-1.1%
10%	Cc1ccc(S(=O)(=O)N2CCOC2C(Cl)(Cl)Cl)cc1 (stereo unspecified)	0	4%	-1.7%
-9%	COc1cc(C(=O)NCCOc2ccccc2)cc(OC)c1OC	x	-7%	-5.6%
-4%	Cc1cc(C)c(NC(=O)C(C)(C)C)c(Cl)c1	10	-3%	0.2%
8%	CCOc1cccc(OCCCCn2cnc3ccccc3c2=O)c1	-1	-6%	-2.6%
-14%	COc1ccc(NC(=O)Cn2c(=O)oc3cc(S(=O)(=O)N4CCCC4)ccc32)c(OC)c1	x	3%	4.0%
-1%	Cc1cccc2cc(/C=C3\N=C(c4ccccc4)OC3=O)c(N3CCOCC3)nc12	-5	0%	-2.6%
-10%	COc1ccccc1-c1nnc(SCc2nc3ccccc3[nH]2)n1C	-5	0%	-7.9%
35%	CCN(CC)S(=O)(=O)c1ccc(N2CCOCC2)c(NC(=O)c2ccc(OC)c([N+](=O)[O-])c2)c1	5	-5%	-0.1%
1%	O=C(O)c1cc2sccc2s1	5	0%	u
23%	NS(=O)(=O)c1cc(C(=O)OCC(=O)N2CCc3ccccc3C2)ccc1Cl	x	x	-1.4%
5%	CCN(CC)S(=O)(=O)c1cc([N+](=O)[O-])ccc1NNC(=O)Nc1ccccc1OC	-4	0%	-0.4%

Among those listed so far, these contain a Cl atom:
Rango dissoc inh	canonical_smiles	GLA inh pH 4.5	miR-21 reporter	Rango-impB inh
1%	COC(=O)N/N=C/c1ccc(-c2ccc(Cl)cc2Cl)o1	1	-17%	-0.9%
0%	Cc1c(C(=O)N/N=C/c2ccc(Cl)cc2)[nH]c2ccc(Cl)cc12	-1	21%	0.1%
-5%	CCN(CC)C(=O)CSC1=N/C(=C/c2ccco2)C(=O)N1c1ccc(OC)c(Cl)c1	1	-9%	-4.8%
6%	COc1ccccc1C1CC(=O)Oc2cc(C)c(Cl)c(C)c21 (stereo unspecified)	-15	x	3.3%
-11%	COc1ccc(Cl)cc1NC(=O)c1cccnc1	-19	-2%	0.1%
0%	Cc1ccc(/C=N/OC(=O)c2nn(C)cc2Cl)cc1	-9	-3%	1.3%
-6%	Cc1c(Cl)cccc1NC(=S)N1CCN(c2ccc([N+](=O)[O-])cn2)CC1	3	-2%	-1.1%
-4%	O=C(Nc1cc(Cl)c(O)c(Cl)c1)C1CCCO1 (stereo unspecified)	11	2%	0.7%
1%	COc1ccc(CNC(=O)c2ccc(Cl)c(NC3=NC4CS(=O)(=O)CC4S3)c2)cc1 (stereo unspecified)	x	-2%	1.5%
8%	Clc1ccc(-c2n[nH]c3c2CCCC3)cc1	1	-43%	3.9%
-5%	O=C1CSC(=Nc2ccccc2Cl)N1	-2	-16%	0.8%
10%	Cc1ccc(S(=O)(=O)N2CCOC2C(Cl)(Cl)Cl)cc1 (stereo unspecified)	0	4%	-1.7%
-4%	Cc1cc(C)c(NC(=O)C(C)(C)C)c(Cl)c1	10	-3%	0.2%
23%	NS(=O)(=O)c1cc(C(=O)OCC(=O)N2CCc3ccccc3C2)ccc1Cl	x	x	-1.4%
